Screening data as filed in PubChem BioAssay.
A1 apoptosis 2 = blocks A1, raising caspase activity. 24,000 tested, under 10 active. MEF A1-2A-BIM cells, caspase-Glo luminescence, 3 h; percent of clofoctol response, DMSO zero. AID 2465. caspase activation, % (test concentration not listed); in the data active = caspase activation above about 5.9%;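 note: wells of about 30 µL received 50 nL stock; the first replicate is given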
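system = A1-2A-BIM-expressing MEF cells | quantity = 2500 MEF cells/well | dosing = 50 nL compound per well, pinned | schedule = overnight cell settling, then 3 h compound exposure, 37 °C | signal = luminescence from DEVD-luciferin Caspase-Glo reagent, 1:1 in 50 mM HEPES, 1 h RT | read-out = Caspase-3/7 activation, seen as rise in luminescence signal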
The depositor's hits bear a star.

SMILES | A1 apoptosis 2
C[C@@H]1CN([C@H](C)CO)C(=O)c2cc(NC(=O)C3CCCCC3)ccc2O[C@@H](C)CCCCO[C@@H]1CN(C)S(=O)(=O)c1cn(C)cn1 | -1.3
C[C@H](CO)N1C[C@H](C)[C@H](CN(C)Cc2ccc(-c3ccccc3)cc2)Oc2ccc(NS(=O)(=O)c3ccc(Cl)cc3)cc2C1=O | -2.3
C[C@@H]1CN([C@@H](C)CO)C(=O)c2cc(NC(=O)Cn3cnnn3)ccc2O[C@H]1CN(C)S(=O)(=O)c1cccs1 | 0.4
C[C@@H]1CN([C@H](C)CO)C(=O)c2cc(NS(=O)(=O)c3cccs3)ccc2O[C@H]1CN(C)Cc1ccccc1 | 0.1
COc1ccc(S(=O)(=O)Nc2ccc3c(c2)CC(=O)N([C@H](C)CO)C[C@@H](C)[C@H](CN(C)Cc2ccc(C(F)(F)F)cc2)O3)cc1 | -1.2
C[C@H]1CN([C@@H](C)CO)C(=O)Cc2cc(NS(=O)(=O)c3ccccc3)ccc2O[C@@H]1CN(C)S(=O)(=O)c1ccccc1 | -0.2
C[C@H](CO)N1C[C@H](C)[C@@H](CN(C)Cc2ccc(C(F)(F)F)cc2)Oc2c(NC(=O)C3CC3)cccc2C1=O | -0.4
COc1ccc(S(=O)(=O)Nc2cccc3c2O[C@@H](CN(C)C(=O)Nc2ccc(F)cc2)[C@H](C)CN([C@H](C)CO)C3=O)cc1 | 0.0
CC(C)NC(=O)N(C)C[C@H]1OCCCC[C@H](C)Oc2ccc(NC(=O)Nc3cccc4ccccc34)cc2C(=O)N([C@H](C)CO)C[C@H]1C | -0.1
CC(C)NC(=O)N(C)C[C@@H]1Oc2ccc(NC(=O)CCCCCC(=O)Nc3ccccc3N)cc2CC(=O)N([C@@H](C)CO)C[C@H]1C | 0.3
C[C@@H]1CN([C@@H](C)CO)C(=O)Cc2cc(NC(=O)C3CCCCC3)ccc2O[C@@H]1CN(C)Cc1ccc(Cl)c(Cl)c1 | -0.1
C[C@H]1CN([C@@H](C)CO)C(=O)c2cc(NC(=O)Nc3ccc(C(F)(F)F)cc3)ccc2O[C@@H]1CN(C)C(=O)NC1CCCCC1 | 1.4
CNC[C@@H]1OCCCC[C@H](C)Oc2ccc(NC(=O)NC(C)C)cc2C(=O)N([C@@H](C)CO)C[C@@H]1C | -0.2
C[C@@H]1CN([C@@H](C)CO)C(=O)Cc2cc(NC(=O)Nc3ccccc3)ccc2O[C@@H]1CN(C)S(=O)(=O)c1cn(C)cn1 | -0.6
C[C@H](CO)N1C[C@H](C)[C@H](CN(C)S(=O)(=O)c2cccs2)OCCCC[C@H](C)Oc2ccc(NC(=O)c3ccncc3)cc2C1=O | 1.5
CC(C)NC(=O)N(C)C[C@H]1Oc2ccc(NS(=O)(=O)c3cccs3)cc2CC(=O)N([C@H](C)CO)C[C@@H]1C | 0.3
C[C@@H]1CN([C@H](C)CO)C(=O)c2cc(NC(=O)Cn3cnnn3)ccc2O[C@H]1CN(C)C(=O)Nc1ccc(F)cc1 | -1.6
C[C@H]1CN([C@@H](C)CO)C(=O)Cc2cc(NC(=O)Nc3cccc4ccccc34)ccc2O[C@H]1CN(C)C(=O)Nc1ccccc1 | 2.4
C[C@@H]1CN([C@H](C)CO)C(=O)Cc2cc(NC(=O)Nc3ccc(C(F)(F)F)cc3)ccc2O[C@H]1CN(C)C(=O)Nc1ccccc1 | -0.7
Cc1noc(C)c1NC(=O)Nc1cccc2c1O[C@@H](CN(C)CC1CC1)[C@H](C)CN([C@H](C)CO)C2=O | 0.3
COc1ccc(S(=O)(=O)Nc2ccc3c(c2)CC(=O)N([C@@H](C)CO)C[C@H](C)[C@H](CN(C)C(=O)Nc2ccc(C(F)(F)F)cc2)O3)cc1 | 1.3
Cc1noc(C)c1S(=O)(=O)Nc1ccc2c(c1)C(=O)N([C@@H](C)CO)C[C@@H](C)[C@H](CN(C)C(=O)NC1CCCCC1)O2 | -0.2
C[C@@H]1CCCCO[C@@H](CN(C)Cc2ccc3c(c2)OCO3)[C@H](C)CN([C@H](C)CO)C(=O)c2cc(NC(=O)Nc3cccc4ccccc34)ccc2O1 | 2.3
C[C@H]1CN([C@@H](C)CO)C(=O)Cc2cc(NC(=O)C3CC3)ccc2O[C@H]1CN(C)Cc1ccc(C(=O)O)cc1 | -0.1
C[C@@H]1CN([C@H](C)CO)C(=O)c2cc(NS(=O)(=O)c3ccc(F)cc3)ccc2O[C@H]1CN(C)Cc1ccccc1 | 3.0

Already shown: 2 of the compounds above.
SMILES | A1 apoptosis 2
C[C@@H]1CN([C@@H](C)CO)C(=O)c2cc(NC(=O)Cn3cnnn3)ccc2O[C@H]1CN(C)S(=O)(=O)c1cccs1 | 0.4
C[C@@H]1CN([C@H](C)CO)C(=O)c2cc(NS(=O)(=O)c3cccs3)ccc2O[C@H]1CN(C)Cc1ccccc1 | 0.1

The listing continues.
SMILES | A1 apoptosis 2
O=c1n(-c2ccccc2)c(=O)n2n1CC(COc1ccccc1)=C1[C@@H](c3ccccc3)OB(O)C[C@@H]12 | -0.6
C[C@@H]1CN([C@@H](C)CO)C(=O)c2cc(NC(=O)Cc3ccccc3)ccc2O[C@@H]1CN(C)C(=O)Nc1ccc(F)cc1 | -1.1
C[C@H](CO)N1C[C@H](C)[C@@H](CN(C)S(=O)(=O)c2cccs2)Oc2c(NS(=O)(=O)c3ccc(F)cc3)cccc2C1=O | -0.7
C[C@H]1CN([C@@H](C)CO)C(=O)c2cccc(NC(=O)Nc3ccc(C(F)(F)F)cc3)c2O[C@@H]1CN(C)C(=O)Nc1ccc(F)cc1 | 0.2
O=C(N/N=C/c1ccc2c(c1)Cc1ccccc1-2)c1ccccc1O | -0.5
COc1ccc(CN(C)C[C@H]2Oc3ccc(NC(=O)NC4CCCCC4)cc3CC(=O)N([C@H](C)CO)C[C@H]2C)cc1 | -0.1
C[C@@H]1CCCCO[C@H](CN(C)C(=O)Cc2ccccc2)[C@H](C)CN([C@@H](C)CO)C(=O)c2cc(NC(=O)C3CCCCC3)ccc2O1 | 1.0
COc1ccc(S(=O)(=O)N(C)C[C@@H]2Oc3ccc(NS(C)(=O)=O)cc3C(=O)N([C@@H](C)CO)C[C@H]2C)cc1 | -0.3
CC(C)NC(=O)N(C)C[C@@H]1Oc2c(NC(=O)Nc3ccc(F)cc3)cccc2C(=O)N([C@@H](C)CO)C[C@@H]1C | -1.9
CC(C)NC(=O)N(C)C[C@@H]1Oc2c(NC(=O)C3CCCCC3)cccc2C(=O)N([C@H](C)CO)C[C@H]1C | -0.3
C[C@@H]1CN([C@@H](C)CO)C(=O)c2cccc(NC(=O)Nc3cccc4ccccc34)c2O[C@H]1CN(C)C(=O)Nc1cccc2ccccc12 | 0.4
COc1ccc(CN(C)C[C@@H]2OCCCC[C@@H](C)Oc3ccc(NC(=O)Nc4ccc(OC)cc4)cc3C(=O)N([C@@H](C)CO)C[C@H]2C)cc1 | -1.9
C[C@H]1CN([C@@H](C)CO)C(=O)c2cccc(NC(=O)C3CCOCC3)c2O[C@@H]1CN(C)Cc1ccc(Oc2ccccc2)cc1 | -0.7
Cc1noc(C)c1S(=O)(=O)N(C)C[C@H]1OCCCC[C@H](C)Oc2ccc(NS(=O)(=O)c3cccs3)cc2C(=O)N([C@H](C)CO)C[C@H]1C | 0.0
O=C1C[C@@](C(=O)NCCN2CCOCC2)(c2ccc([N+](=O)[O-])cc2)[C@@H](c2ccc(CO)cc2I)N1CC12CC3CC(CC(C3)C1)C2 | 0.9
C[C@@H]1CN([C@H](C)CO)C(=O)c2cccc(NC(=O)Nc3ccc(F)cc3)c2O[C@H]1CN(C)CC1CC1 | -0.9
Cc1noc(C)c1NC(=O)N(C)C[C@H]1Oc2ccc(NS(=O)(=O)c3cn(C)cn3)cc2CC(=O)N([C@H](C)CO)C[C@@H]1C | -0.4
C[C@H](CO)N1C[C@H](C)[C@H](CN(C)Cc2ccc(C(=O)Nc3ccccc3N)cc2)Oc2c(NC(=O)NC3CCCCC3)cccc2C1=O | -1.1
CC(C)NC(=O)Nc1ccc2c(c1)CC(=O)N([C@H](C)CO)C[C@@H](C)[C@H](CN(C)C(=O)Nc1ccc(C(F)(F)F)cc1)O2 | -0.9
Cc1ccc(S(=O)(=O)Nc2ccc3c(c2)CC(=O)N([C@H](C)CO)C[C@@H](C)[C@@H](CN(C)Cc2ccc4c(c2)OCO4)O3)cc1 | -0.2
C[C@H]1CN([C@@H](C)CO)C(=O)c2cccc(NC(=O)C3CCOCC3)c2O[C@H]1CN(C)Cc1ccc(Cl)c(Cl)c1 | 0.7
C[C@@H]1CN([C@@H](C)CO)C(=O)c2cc(NC(=O)Nc3ccccc3)ccc2O[C@H]1CN(C)CC1CCCCC1 | 0.5
COCCOC(=O)N1C(=O)[C@@]2(c3cc(C#CCCO)ccc31)[C@H](C(=O)NC[C@H](O)c1ccccc1)[C@H]1C(=O)O[C@H](c3ccccc3)[C@H](c3ccccc3)N1[C@@H]2c1ccccc1OCCO | 0.5
C[C@@H]1CN([C@H](C)CO)C(=O)Cc2cc(NC(=O)CCN3CCOCC3)ccc2O[C@@H]1CN(C)Cc1ccc(-c2ccccc2)cc1 | -1.4
CC(C)NC(=O)Nc1cccc2c1O[C@@H](CN(C)Cc1ccc(C(F)(F)F)cc1)[C@@H](C)CN([C@H](C)CO)C2=O | -1.3
Next section.
SMILES | A1 apoptosis 2
C[C@H](CO)N1C[C@H](C)[C@H](CN(C)Cc2ccc(-c3ccccc3)cc2)Oc2c(NC(=O)Nc3ccc(C(F)(F)F)cc3)cccc2C1=O | -0.9
C[C@@H]1CN([C@@H](C)CO)C(=O)c2cc(NC(=O)c3ccncc3)ccc2O[C@@H](C)CCCCO[C@H]1CN(C)C(=O)Nc1ccccc1 | -0.1
O=C(N/N=C/c1ccc2ccccc2c1)c1ccccc1O | -2.5
COc1ccc(S(=O)(=O)Nc2ccc3c(c2)C(=O)N([C@H](C)CO)C[C@H](C)[C@H](CN(C)C(=O)Nc2ccccc2)OCCCC[C@@H](C)O3)cc1 | 0.0
C[C@@H]1CN([C@@H](C)CO)C(=O)Cc2cc(NC(=O)Nc3ccc(C(F)(F)F)cc3)ccc2O[C@H]1CN(C)C(=O)NC1CCCCC1 | -0.7
C[C@H](CO)N1C[C@H](C)[C@@H](CN(C)C(=O)Cc2ccccc2)OCCCC[C@H](C)Oc2ccc(NS(=O)(=O)c3ccccc3)cc2C1=O | 0.5
C[C@@H]1CN([C@H](C)CO)C(=O)c2cc(NC(=O)Nc3ccc(C(F)(F)F)cc3)ccc2O[C@@H]1CN(C)C(=O)Nc1ccc(F)cc1 | -0.6
C[C@H]1CN([C@@H](C)CO)C(=O)c2cccc(NC(=O)c3cnccn3)c2O[C@H]1CN(C)CC1CC1 | 1.2
C[C@@H]1CN([C@@H](C)CO)C(=O)c2cccc(NC(=O)Nc3ccc(C(F)(F)F)cc3)c2O[C@H]1CN(C)S(=O)(=O)c1ccc(F)cc1 | 1.3
C[C@@H]1CN([C@@H](C)CO)C(=O)c2cc(NC(=O)Cc3ccccc3)ccc2O[C@H]1CN(C)Cc1ccc(-c2ccccc2)cc1 | -0.7
C[C@@H]1CN([C@H](C)CO)C(=O)Cc2cc(NC(=O)CCN3CCOCC3)ccc2O[C@@H]1CN(C)CC1CC1 | -0.1
C[C@@H]1CN([C@@H](C)CO)C(=O)c2cccc(NC(=O)Nc3ccc(F)cc3)c2O[C@@H]1CN(C)C(=O)Nc1cccc2ccccc12 | -1.2
Cc1noc(C)c1NC(=O)Nc1ccc2c(c1)C(=O)N([C@H](C)CO)C[C@H](C)[C@H](CN(C)S(=O)(=O)c1ccccc1)OCCCC[C@@H](C)O2 | -0.3
Cc1noc(C)c1S(=O)(=O)Nc1ccc2c(c1)C(=O)N([C@H](C)CO)C[C@H](C)[C@H](CN(C)Cc1ccncc1)O2 | 0.3
COc1ccc(NC(=O)N(C)C[C@@H]2Oc3c(NS(=O)(=O)c4ccc(Cl)cc4)cccc3C(=O)N([C@@H](C)CO)C[C@@H]2C)cc1 | 0.6
CNC[C@@H]1OCCCC[C@H](C)Oc2ccc(NC(=O)Nc3ccccc3)cc2C(=O)N([C@@H](C)CO)C[C@@H]1C | -0.4
C[C@@H]1CCCCO[C@@H](CN(C)C(=O)c2ccccc2)[C@H](C)CN([C@@H](C)CO)C(=O)c2cc(NC(=O)Nc3ccc(F)cc3)ccc2O1 | -2.1
C[C@@H]1CN([C@@H](C)CO)C(=O)c2cc(NS(=O)(=O)c3cccs3)ccc2O[C@@H](C)CCCCO[C@H]1CN(C)C | -0.4
C[C@@H]1CN([C@H](C)CO)C(=O)c2cc(NC(=O)CCCN(C)C)ccc2O[C@H]1CN(C)C(=O)NC1CCCCC1 | -1.2

In the list so far, eight have an aryl methoxy group:
SMILES | A1 apoptosis 2
COc1ccc(S(=O)(=O)Nc2ccc3c(c2)CC(=O)N([C@H](C)CO)C[C@@H](C)[C@H](CN(C)Cc2ccc(C(F)(F)F)cc2)O3)cc1 | -1.2
COc1ccc(S(=O)(=O)Nc2cccc3c2O[C@@H](CN(C)C(=O)Nc2ccc(F)cc2)[C@H](C)CN([C@H](C)CO)C3=O)cc1 | 0.0
COc1ccc(S(=O)(=O)Nc2ccc3c(c2)CC(=O)N([C@@H](C)CO)C[C@H](C)[C@H](CN(C)C(=O)Nc2ccc(C(F)(F)F)cc2)O3)cc1 | 1.3
COc1ccc(CN(C)C[C@H]2Oc3ccc(NC(=O)NC4CCCCC4)cc3CC(=O)N([C@H](C)CO)C[C@H]2C)cc1 | -0.1
COc1ccc(S(=O)(=O)N(C)C[C@@H]2Oc3ccc(NS(C)(=O)=O)cc3C(=O)N([C@@H](C)CO)C[C@H]2C)cc1 | -0.3
COc1ccc(CN(C)C[C@@H]2OCCCC[C@@H](C)Oc3ccc(NC(=O)Nc4ccc(OC)cc4)cc3C(=O)N([C@@H](C)CO)C[C@H]2C)cc1 | -1.9
COc1ccc(S(=O)(=O)Nc2ccc3c(c2)C(=O)N([C@H](C)CO)C[C@H](C)[C@H](CN(C)C(=O)Nc2ccccc2)OCCCC[C@@H](C)O3)cc1 | 0.0
COc1ccc(NC(=O)N(C)C[C@@H]2Oc3c(NS(=O)(=O)c4ccc(Cl)cc4)cccc3C(=O)N([C@@H](C)CO)C[C@@H]2C)cc1 | 0.6

Some of the compounds tested; the hit share may differ from the screen's.
